# High-throughput results from PubChem BioAssay.
# ugtP null kill: growth inhibition of S. aureus ugtP deletion strain. S. aureus RN4220 ugtP deletion, OD600 growth, 16 h; some inactives read as strong as hits. 330,000 tested, 0.54% active. growth inhibition, % (concentration not given with the values). AID 1259309;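 active = z-score under -3 and OD600 up to 0.15 on both plates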;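 also: plate controls were untreated wells for no effect and antibiotic for full effect; wells of about 80 µL received 100 nL stock; the first replicate is given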
# Sa RN4220 lethal: kills Staphylococcus aureus RN4220; S. aureus RN4220 growth, OD600, 16 h; inhibition, % (no concentration beside the values); 330,000 tested, 0.33% active; AID 1259311;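 active = z-score of -3 or lower and OD600 up to 0.18 on both plates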;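 also: plate controls were untreated cells for no effect and reference antibiotic for full effect; stock transfer was 100 nL into about 80 µL; one replicate is shown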
# PrP 5UTR inh: suppresses PrP 5' UTR mRNA reporter expression; 340,000 tested, 0.35% active; cell-based PrP 5' UTR mRNA reporter, plate reader; inhibition, % (concentration not given with the values);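 active = every replicate at 50% or more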;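 also: 0 = median of the neutral control wells; tested in H4 reporter cells; numbers are from one replicate; inactives centre near -14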
# BJeLR lethal: BJeLR cell viability loss; BJeLR (HRASV12) viability, CellTiter-Glo ATP luminescence, 48 h; reference of the scale not given here; 300,000 tested, 0.17% active; inhibition, % (concentration not given with the values);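 active = replicate mean above 50%; inconclusive = above 50% but judged a plate artefact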;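 also: 50 nL library stock added to about 25 µL; numbers are from one replicate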
# Autofluor counter: flagged as autofluorescent in microsphere protease counterscreen | 360,000 tested, 3.1% active | compound autofluorescence counterscreen, microsphere flow cytometry; hits give high values | fluorescence intensity (concentration not given with the values);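 active = at least 3 SD above the mean of all compounds, about 16000 in these data; inconclusive = too few beads counted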;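 also: 100 nL of 1 mM stock went into each well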
# Mtb hypoxia inh: inhibitors of hypoxia-regulated fluorescent reporter in Mycobacterium tuberculosis; 300,000 tested, 0.1% active; M. tuberculosis hypoxia-regulated fluorescent reporter, fluorescence; fluorescence inhibition, % (concentration not given with the values);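 active = 35 to 45% if threefold the growth effect, above 45% if 1.5-fold the growth effect; inactive = the rest, general growth blockers included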;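 also: wells of about 50 µL received 100 nL stock; 0% = vehicle wells and 100% = reference inhibitor wells; whole bacteria with a GFP reporter of the hypoxia response; strong numbers were not always called active; many hits fall short of the cut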
# Mtb hypoxia inh growth: recorded beside Mtb hypoxia inh, whose call it bears; growth inhibition, %; measured here: M. tuberculosis growth (absorbance);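 0% = vehicle and 100% = reference antibiotic; read after six days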
# * = called active by the depositor; ? = inconclusive; . = not tested or not shown; & = joins results of further samples.
SMILES,ugtP null kill,Sa RN4220 lethal,PrP 5UTR inh,BJeLR lethal,Autofluor counter,Mtb hypoxia inh,Mtb hypoxia inh growth
Cc1ccc(-c2nsc3c(N4CCC(C(N)=O)CC4)ncnc23)cc1,2,-1.1,-67,3,3467,5,6
O=C(O)c1cccc2c1Cc1cc(Cl)ccc1-2,-4,7.3,-20,.,4409,8,2
CCOc1ccc(S(=O)(=O)N2CCN(C(=S)NC3CC3)CC2)cc1,2,3.0,-15,0,7996,14,1
Cc1c(-c2ccccc2)nc(N)c(C#N)c1-c1cccnc1,7,3.0,-23,0,4513,1,12
CC(C)NC(=O)c1onc(CSc2ccccn2)c1C(=O)NC(C)C,2,7.2,-28,3,2920,-7,-10
COc1ccc(-c2cccc([C@H]3[C@@H]4C=CCC[C@@]4(C)C(=O)N3Cc3ccccc3)c2)cc1,.,.,-6,3,3925,.,.
COP1(=O)CC(O)C(O)C(COCc2ccccc2)O1 (stereo not given),3,4.6,.,.,.,-2,0
O=C1CC(c2ccccc2)CC(O)=C1C=NC1CCCC1 (stereo not given),1,2.1,-56,4,12388,-1,1
CCCn1c(N)c(C(=O)CN(C)CC(=O)Nc2cccc(F)c2)c(=O)[nH]c1=O,9,6.6,-17,.,.,-6,2
Cc1csc2ncc(C(=O)NCCC(c3ccccc3)c3ccccc3)c(=O)n12,7,9.6,0,-1,5304,8,4
[O-]c1ccccc1-[n+]1c(-c2ccccc2)cc(-c2ccccc2)cc1-c1ccccc1,100*,101*,-1,63*,3929,.,.
Cc1ccc(C(=O)NCc2ccccn2)cc1S(=O)(=O)N1CCCCC1,-5,-0.3,-7,5,6178,-6,10
COc1ccc(C(=O)NC2CC(C)(C)Cc3c2cnn3-c2ccccc2)c(OC)c1 (stereo not given),2,3.4,-15,-5,6730,3,-2
CCOC(=O)C=CC1CC2(CCO1)SCCCS2 (stereo not given),-1,9.6,.,.,.,10,4
Cc1nn(Cc2ccc(Cl)cc2)c(C)c1N,-1,3.0,-15,0,3383,2,8

# 6 records drawn at random from those above, as already listed:
SMILES,ugtP null kill,Sa RN4220 lethal,PrP 5UTR inh,BJeLR lethal,Autofluor counter,Mtb hypoxia inh,Mtb hypoxia inh growth
Cc1nn(Cc2ccc(Cl)cc2)c(C)c1N,-1,3.0,-15,0,3383,2,8
COP1(=O)CC(O)C(O)C(COCc2ccccc2)O1 (stereo not given),3,4.6,.,.,.,-2,0
CCOc1ccc(S(=O)(=O)N2CCN(C(=S)NC3CC3)CC2)cc1,2,3.0,-15,0,7996,14,1
Cc1ccc(-c2nsc3c(N4CCC(C(N)=O)CC4)ncnc23)cc1,2,-1.1,-67,3,3467,5,6
CC(C)NC(=O)c1onc(CSc2ccccn2)c1C(=O)NC(C)C,2,7.2,-28,3,2920,-7,-10
CCCn1c(N)c(C(=O)CN(C)CC(=O)Nc2cccc(F)c2)c(=O)[nH]c1=O,9,6.6,-17,.,.,-6,2

# Continuation.
SMILES,ugtP null kill,Sa RN4220 lethal,PrP 5UTR inh,BJeLR lethal,Autofluor counter,Mtb hypoxia inh,Mtb hypoxia inh growth
CN(C(=O)c1cc(-c2ccc3c(c2)OCO3)on1)c1ccccc1,5,11,-33,5,3189,15,-1
Cc1cccc(OCCNC(=O)c2cncc(Br)c2)c1,5,0.4,-3,.,1909,10,-3
O=C(Cn1c(=O)oc2cc(S(=O)(=O)N3CCCCC3)ccc21)N1CCc2ccccc2C1,3,-1.0,-10,1,5683,0,8
CCOC(=O)c1c(C)nn(Cc2cccc(Cl)c2)c1N,-8,-0.9,-19,-11,9884,2,6
C#CCC(NC(=O)c1ccc(C#N)cc1)C(=O)NCCC (stereo not given),-4,-11,1,.,3667,7,6
CCc1cccc(CC)c1NC(=O)C1CN(S(=O)(=O)c2ccccc2)CCN1S(=O)(=O)c1ccccc1 (stereo not given),-3,1.6,-11,-4,2655,7,2
O=C(CSc1nc2ccsc2c(=O)n1-c1ccccc1)N1CCCC1,0,3.0,-23,-4,11157,5,6
O=C(c1cc(S(=O)(=O)N2CCOCC2)ccc1Cl)N1CCCCC1CO (stereo not given),1,2.4,13,.,4329,8,7
O=C(CSc1nnc(COc2ccccc2F)n1-c1ccccc1)NC1CCS(=O)(=O)C1 (stereo not given),4,0.3,-11,-5,2577,-2,-8
CCN(c1ccccc1)c1nc2ccsc2c(=O)s1,77,13,-11,.,15914,9,13
COCCCN1CC(=O)N2C(c3cccc(C)c3)c3[nH]c4ccccc4c3C[C@H]2C1=O (stereo not given in full),7,-2.8,-14,-1,3857,-5,-7
COc1ccccc1C/C(N)=N/OC(=O)c1ccc(C)c([N+](=O)[O-])c1,4,3.7,-28,4,9852,8,10
O=C(CC1C(=O)NCCN1Cc1ccc(-c2ccccc2)cc1)NCCCn1ccnc1 (stereo not given),2,3.8,2,-3,.,15,5
Cc1cccc(-c2noc(CCC(=O)NC3CCCC3)n2)c1,-6,-0.5,.,-14,.,12,-1
COc1ccc(NC(=O)CC2C(=O)NCCN2C(=O)c2ccc(N(C)C)cc2)cc1 (stereo not given),-3,1.5,.,-2,?,16,10
O=C(O)C1CC=CCC1C(=O)Nc1cccc(F)c1 (stereo not given),10,1.8,-9,-1,6801,17,11
CC12CN3CCN(CC(C3)/C1=N\NC(=O)Nc1cccc(Cl)c1)C2,.,.,-40,-3,3884,.,.
CC12CC3CC(C)(C1)CC(C(=O)NC(=S)N1CCCCC1)(C3)C2,1,6.7,-9,-4,8003,-3,4
O=C(O)c1ccc(CSc2nc(-c3ccc(Cl)cc3)cc(C(F)(F)F)n2)cc1,40,22,-6,-8,7843,4,2
Cc1cccc(NC(=S)NNC(=O)Cc2ccccc2)c1,4,6.7,3,6,11121,12,13
O=C(O)C(=O)C(=Cc1ccccc1)c1ccc2ccccc2n1,-1,9.0,.,.,.,6,6
COc1ccc(OC)c(CN2CCC(CNC(=O)Nc3cccc(Cl)c3)CC2)c1,17,2.4,-20,-2,4222,3,12
Cc1ccccc1NC(=S)/C(=C(\[O-])c1cc(C)n(Cc2ccccc2Cl)c1C)[n+]1ccccc1,9,-6.0,-32,-4,3096,10,9
CC1CCCN(C2=C(Cl)C(=O)N(c3cccc(Cl)c3)C2=O)C1 (stereo not given),1,3.9,-26,-10,2084,-5,-4
COc1ccc(C(=O)C(=O)c2ccc(OCCO)cc2)cc1,5,6.2,-8,-4,3106,6,9
Cc1ccc(NC(=O)COc2ccc(N(C)C(=O)C(C)(C)C)cc2)cc1S(=O)(=O)N1CCCCC1,-4,1.2,11,.,3805,8,3
CCOC(=O)c1cccc(NC(=O)CSc2nc(N)cc(N)n2)c1,-5,-3.4,-6,1,8626,2,13
Cc1ccc(S(=O)(=O)N(C)c2ccc(OCC(=O)NC3=NCCS3)cc2)cc1,4,5.5,-26,6,4167,8,2
CCOc1cc(C(=S)N2CCC(O)CC2)ccc1OS(=O)(=O)c1ccc(Br)cc1,7,24,-26,2,12506,3,2
COc1ccc(NC(=O)CN(Cc2ccccc2)S(C)(=O)=O)c(OC)c1,5,1.4,-19,-2,11464,1,2
N#Cc1ccc(OCC(=O)NCCCn2ccnc2)cc1,1,2.5,-33,.,3521,12,11
CCn1cc(/C=C(\NC(=O)c2ccccc2Cl)C(=O)NCCN2CCOCC2)c2ccccc21,4,1.0,-9,-11,6626,4,-1
CN(Cc1ccc(Cl)c(Cl)c1)C(=O)C1=CC=CN2CCS(=O)(=O)N=C12,-7,1.0,-4,.,4034,-1,1
NC(=O)c1nn(-c2ccccc2)nc1NC(=O)CN1CCOCC1,-1,3.5,-18,9,5428,14,8
CCN1CCN(c2nc3ccccc3nc2C(C#N)S(=O)(=O)c2ccc(C)c(C)c2)CC1 (stereo not given),-4,6.4,-17,10,22821*,6,4
CCCCn1c(N)c(N(CC(C)C)C(=O)C2CCN(S(=O)(=O)c3ccc(F)cc3)CC2)c(=O)[nH]c1=O,0,2.5,-28,0,5679,2,5
O=C(NCc1ccc(Cl)cc1)c1cc(=O)[nH]c2ccc(S(=O)(=O)N3CCOCC3)cc12,4,1.3,-7,3,5880,5,3
COc1ccc(N(CC(=O)NCc2ccncc2)S(=O)(=O)c2ccc(C)c([N+](=O)[O-])c2)cc1,1,1.0,-13,9,4203,11,-1
CCCOC(=O)c1ccc(NC(=O)c2cnccn2)cc1,-6,3.3,-32,5,2552,3,7
COCCNC(=S)N/N=C(\C)c1ccc(O)cc1,.,.,-6,9,2452,.,.
CCC(=O)N1CCc2cc(S(=O)(=O)NCCC(=O)N3CCN(c4cccc(C)c4)C(C)C3)ccc21 (stereo not given),5,2.7,-31,-3,5254,-5,7
CCOc1[nH]n(-c2ccc(Cl)cc2)c(=O)c1C=NCc1cccnc1,5,-1.2,-4,-4,2523,-6,-27
Oc1ccc(/C=N/N=C/c2ccc(O)c(O)c2)cc1O,.,.,8,4,5768,.,.
CN(Cc1c(C(=O)N/N=C/c2cccc(O)c2)nnn1-c1nonc1N)C1CCCCC1,.,.,-3,7,4859,.,.
C=C1C2C[C@H](O)C(C)(C)[C@@]2(O)[C@H](O)C[C@]23C[C@@](C)(O)[C@H](CC[C@H]12)[C@H]3OC(C)=O (stereo not given in full),.,.,-14,9,3351,.,.
CCOC(=O)c1c(C)oc2ccc(OCC(=O)N(CC)CC)cc12,4,0.6,8,14,2336,13,10
NC(=O)c1ccc(NC(=O)CCNC(=O)c2ccco2)cc1,1,4.0,-10,7,4973,-3,-4
COc1ccccc1NC(=O)C12CCC(C)(C(=O)C1)C2(C)C (stereo not given),1,1.7,3,-4,2260,12,-1
Cc1ccc(NC(=O)c2cc(NC(=O)c3ccco3)ccc2N2CCCCC2)cc1,10,3.3,-24,-13,3224,10,4
CN1CCN(C(=O)C2=CC(C3CC3)CC(OCc3ccc(CO)cc3)O2)CC1 (stereo not given),4&0,4.0&4.0,.,.,.,22&21,8&12
c1ccc(-c2nc(NCCCn3ccnc3)c3oc4ccccc4c3n2)cc1,56,47,-3,-7,8551,.,.
O=C(Cn1cccc1C(=O)c1ccccc1)NCCCc1ccccc1,6,-2.7,-16,-3,3976,10,4
CC/C(=C/c1sc2ccc(C)cc2[n+]1CCO)SC,5,2.3,-14,10,3443,2,5
CCCCc1nc(NCCNC(=O)c2ccco2)c(C#N)c2c1CSC(C)(C)C2,-6,1.6,.,.,.,2,7
N#Cc1ccccc1COC(=O)c1ccc(Br)o1,9,2.0,-13,-7,5380,0,5
Clc1cc(Cl)cc(CSc2nnc(-c3sccc3-n3cccc3)o2)c1,-1,17,-16,0,5426,.,.
Brc1ccc(OCCCCN2CCCCC2)cc1,14,3.2,-22,-2,?,11,13
CCOC(=O)CN1CC23C=CC(O2)C(C(=O)Nc2ccc(F)c(C)c2)C3C1=O (stereo not given),9,0.3,-46,5,3160,.,.
O=C1N=C2SCCN2C1=Cc1ccccc1Cl,8,6.5,.,.,.,5,6
COCCCNC(=O)C1CCN(c2ccc(N3CCOCC3)nn2)CC1,5,7.8,-1,7,4569,7,5
# Next section.
SMILES,ugtP null kill,Sa RN4220 lethal,PrP 5UTR inh,BJeLR lethal,Autofluor counter,Mtb hypoxia inh,Mtb hypoxia inh growth
COCCCNC(=O)C[C@H]1C[C@H](C(=O)N2CCOCC2)[C@@]2(C)c3[nH]c4cc(-c5ccco5)ccc4c3CCN2C1=O,10,4.2,-8,.,3483,2,3
CC1(C)CC(=O)C(C(=O)C2CCN(S(=O)(=O)c3ccccc3)CC2)C(=O)C1,15,3.5,4,0,3512,4,0
CC(=NNC(=O)c1ccc(CN2CCOCC2)cc1)c1ccc(NC(=O)c2ccccc2)cc1,5,3.9,.,.,.,5,4
CCCCC1(C)OC(=O)C(=Cc2ccc(-c3ccc(Cl)c(C(=O)O)c3)o2)C(=O)O1 (stereo not given),5,2.5,2,-5,4867,7,1
Cc1cccc(NC(=O)CSc2nnc(-c3ccccc3Br)o2)c1C,-1,-3.6,-18,-6,4769,.,.
Cc1nc2c(c(=O)c3ccccc3n2C)c(=O)n1-c1ccccc1,-4,1.1,-31,-4,4039,-15,1
c1ccc(N/N=C2\CCCc3ccccc32)nc1,.,.,-14,-8,3650,.,.
CC(CNC(=O)CN1C(=O)c2cccnc2Oc2ccc(Cl)cc21)c1ccccc1 (stereo not given),15,-2.6,-25,-4,.,2,4
COc1ccc(NC(=O)COc2ccc(Br)cc2)c(OC)c1,5,4.0,-15,-5,3955,-1,-4
CC(O)/C=C/C1OC(=O)CC1Nc1ccc(C=O)cc1 (stereo not given),-5,0.8,-17,0,5766,.,.
